Assay outcomes as filed in PubChem.
Rango-impB inh: Rango-importin beta binding inhibition; Potency, µM (highest dose often 92.2 µM), for inactives: at the highest dose inhibition of complex formation; 0.031% of 340,000 active; Rango CFP/YFP FRET sensor + importin beta, 45 min; AID 540263; Q14974; active = rising FRET ratio curve, often small or poorly fitted; inconclusive = mostly compound fluorescence or quenching in the first reads; inactive = flat curves in all reads;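 further: potency means the concentration at half of the fitted maximal effect; 0% = DMSO wells and 100% = buffer wells lacking importin beta; nearly all actives have a fitted effect of over 15% in size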
Target sequence (Q14974 whole entry, looked up): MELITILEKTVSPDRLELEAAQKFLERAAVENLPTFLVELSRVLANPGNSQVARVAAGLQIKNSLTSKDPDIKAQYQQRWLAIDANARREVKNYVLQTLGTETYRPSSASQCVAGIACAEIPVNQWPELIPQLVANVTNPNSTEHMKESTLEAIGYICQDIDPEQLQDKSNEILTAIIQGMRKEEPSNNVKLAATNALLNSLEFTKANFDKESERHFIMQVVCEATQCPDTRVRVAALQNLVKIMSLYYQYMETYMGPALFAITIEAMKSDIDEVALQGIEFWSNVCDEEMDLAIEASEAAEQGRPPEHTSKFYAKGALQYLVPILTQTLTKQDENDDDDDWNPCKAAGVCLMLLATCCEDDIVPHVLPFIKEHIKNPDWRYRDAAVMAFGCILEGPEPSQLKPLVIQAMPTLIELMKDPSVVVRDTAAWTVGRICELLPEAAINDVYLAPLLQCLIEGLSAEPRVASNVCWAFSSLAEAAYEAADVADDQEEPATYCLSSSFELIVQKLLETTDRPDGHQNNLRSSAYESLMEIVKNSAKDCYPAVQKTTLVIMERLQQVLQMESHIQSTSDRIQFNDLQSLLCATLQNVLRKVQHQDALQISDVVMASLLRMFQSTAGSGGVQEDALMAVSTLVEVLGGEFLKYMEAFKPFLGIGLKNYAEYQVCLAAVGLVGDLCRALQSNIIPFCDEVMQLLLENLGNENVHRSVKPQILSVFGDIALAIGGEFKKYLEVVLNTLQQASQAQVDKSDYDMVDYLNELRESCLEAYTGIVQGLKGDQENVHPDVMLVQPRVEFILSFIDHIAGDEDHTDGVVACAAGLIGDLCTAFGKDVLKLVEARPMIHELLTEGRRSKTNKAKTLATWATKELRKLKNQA
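FRET biosensor (snurportin 1 IBB flanked by EYFP and cerulean), 50 nM, with compound 5 min, then 0.125 microM importin beta in PBS, 1 mM DTT, 0.02% Tween-20, 0.1% BSA. CFP/YFP ratio read after 45 min at room temperature; pre-read flags interference.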
Rango dissoc inh: inhibitors of RanGTP-induced Rango-importin beta complex dissociation; AID 540253; Potency, µM (top dose mostly 46.1 µM), without a hit: top-dose activity change, negative = inhibition; O95149+P62826; 0.071% of 340,000 active; Biochemical FRET Rango-importin beta, RanGTP-induced dissociation; active means falling FRET ratio curve, often poorly fitted, with flat reads before Ran was added; inconclusive means other falling curves, or compound fluorescence or quenching; inactive means flat or rising ratio curve;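 further: potency means the concentration at half of the fitted maximal effect; % of control where 0% means no effect; nearly all actives have a fitted effect of over 45% in size; -100% = wells without RanGTP and RCC1; the record marks most hits as doubtful in a second field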
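Compounds sat 5 min at room temperature with 0.1 uM Rango biosensor plus 0.25 uM importin beta, then FRET pre-read. RanGTP-RCC1 (0.6 uM Ran, 2mM GTP, 0.2 uM RCC1) added for 45 min, and the CFP/YFP post-read measured blocked complex dissociation.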
miR-21 FLuc: miR-21 reporter, rising signal. Potency, µM (highest dose often 38.3 µM), for the others: at the top dose reporter change, positive = more light. HeLa miR-21 FLuc reporter, luciferase, 48 h. 340,000 tested, under 10 active; active = well fitted rising curve with a large enough effect; inconclusive = small, poorly fitted or top-dose-only effect; inactive = no such curve, though single readings can be large or run the other way;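 further: % of control where 0% means no effect; miR-21 action dims this reporter so a rising signal means less miR-21 action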
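HeLa cells stably expressing CMV-driven firefly luciferase with a downstream miR-21 binding sequence, endogenously expressing miR-21, were treated with titrations (up to about 40uM final) for 48 hours at 37 degree Celsius. Luciferase luminescence was read after lysis.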
GLA inh pH 4.5: blocks human alpha-galactosidase A at pH 4.5; 230,000 tested, under 10 active; purified enzyme, 4-MU-alpha-Gal fluorescence, pH 4.5; activity change, negative = inhibition, % at 105 µM; AID 1467; inconclusive = small, poorly fitted or top-dose-only inhibition, or a rising curve; inactive = flat fitted curve, though single readings scatter; no compound was filed as active;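 further: 0% = full activity with enzyme and -100% = basal without enzyme; dose as in the result columns while the protocol names 77 µM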
* hit, by the source's call; ? = inconclusive; nt = not tested or not shown; & = joins results of further samples. An excerpt; count on the stated rates, not on these rows.

SMILES	Rango-impB inh	Rango dissoc inh	miR-21 FLuc	GLA inh pH 4.5
COc1ccc(S(=O)(=O)N(C)CC(=O)NC2CCCCC2)cc1OC	-8.3%	1.4%	-10.3%	-12.7
O=C(COc1ccc(Cl)cc1Cl)NCCC1=CCCCC1	0.0%	-14.2%	-12.5%	-0.5
O=C(COc1ccc(Cl)cc1Cl)NN1C(=O)C2C3C=CC(C3)C2C1=O (centres undefined)	1.5%	-7.3%	-3.7%	7.8
O=C(CC1SC(=Nc2cccc3ccccc23)N(Cc2ccccn2)C1=O)Nc1ccccc1Br (centres undefined)	1.9%	27.4%	22.7%	-9.2
COc1ccc(OC)c(NC(=O)CSc2nnc(Cn3nnc4ccccc43)n2C)c1	9.4%	18.7%	0.9%	-3.6
COc1ccc(C2COC(=O)C2=N)c(NC(=O)c2ccccc2)c1 (centres undefined)	-1.7%	4.7%	2.0%	-1.1
O=S(=O)(NC(=S)NC1CCCCC1)c1ccc(Cl)cc1	3.6%	-2.9%	-0.8%	5.9
O=C(CSc1n[nH]c(-c2ccccc2)n1)Nc1ncccn1	-1.3%	-6.1%	-25.9%	8.6
CC(C)(C)C(=O)Nc1ccc(-c2cn3cccnc3n2)cc1	-0.7%	9.9%	-39.4%	nt
CCc1nccn1S(=O)(=O)c1cccc([N+](=O)[O-])c1	-0.2%	-5.5%	-7.7%	4.9
COc1cnc(-c2ccccn2)nc1Sc1cccc(Cl)c1	0.9%	18.4%	0.0%	0.7
C=CCN(C(=O)COc1ccccc1)c1nnc(-c2ccncc2)s1	-3.0%	2.0%	-10.3%	-0.2
CC(C)CN(CCCNC(=O)CN1C(=O)CSc2ccc(S(=O)(=O)N3CCOCC3)cc21)CC(C)C	0.5%	16.2%	-2.5%&-0.6%	-13.1
COc1cccc(C2C3CN(C)CC=C3C(C#N)=C(N)C2(C#N)C#N)c1OC (centres undefined)	?	?	-3.8%	13.2
CC1CCCCN1C(=O)c1c(Cl)cnn1C (centres undefined)	-2.5%	-11.5%	-0.6%	nt
O=C(O)c1ccccc1NC(=O)C1CCCO1 (centres undefined)	-4.0%	10.3%	-1.4%	11.6
CCOC(=O)C(=CNc1cc(C)ccc1[N+](=O)[O-])C(=O)OCC	-1.1%	-5.4%	-6.6%	-2.0
COc1ccccc1NC(=O)c1cc(Cl)ccc1NC(=O)c1ccco1	-1.1%	-14.1%	-1.0%	4.8
CCC(C)(C)NC(=O)C1CCCN1C(=O)NC1CCCCC1 (centres undefined)	-2.8%	8.7%	0.4%	-1.0
CCn1nnnc1SCC(=O)Nc1cccc(C)n1	-2.8%	-13.0%	-3.2%	-15.2
CCOC(=O)CSc1nc(C)c2ccccc2n1	0.2%	15.2%	-8.7%	0.7
CCOc1cc(/C=C(\C#N)C(N)=O)ccc1OCc1c(C)no[n+]1[O-]	0.7%	-19.8%	-1.2%	-4.6
COC(=O)c1ccc(CS(=O)(=O)c2ccccc2C)o1	?	-10.5%	-7.5%	2.5
CC(C)c1ccc(/C=C/C(=O)CCC(=O)O)cc1	-1.2%	2.7%	-13.9%	0.6
CCOC(=O)CNC(=O)C(NC(=O)C1CCC(C)CC1)C(C)CC (centres undefined)	-2.1%	4.8%	0.2%	-1.7

Following part:
SMILES	Rango-impB inh	Rango dissoc inh	miR-21 FLuc	GLA inh pH 4.5
Cn1c(=O)c2c(nc(N3CCOCC3)n2CC(=O)c2ccccc2)n(C)c1=O	nt	nt	5.1%	-10.6
O=C(NCCC1CCCCN1S(=O)(=O)c1ccccc1)C(=O)NCc1ccc(F)cc1 (centres undefined)	-2.2%	-13.4%	nt	nt
COc1ccc2c(c1)sc1nc(=O)ccn12	3.3%	-3.8%	-7.6%	nt
Cc1nn(-c2ccccc2)c(Cl)c1/C=N/NC(=O)c1cccc(S(=O)(=O)N2CCCC2)c1	-1.0%	11.5%	-1.2%	-3.6
COc1ccc(Br)cc1CNC(=O)C1CCN(c2nnc(N3CCCC3=O)s2)CC1	-0.9%	-8.1%	-6.6%	nt
O=c1oc2ccccc2cc1-c1nnc(-c2cccc(Br)c2)o1	-0.2%	-2.0%	-7.7%	9.2
COc1ccccc1-c1cc(C(F)(F)F)nc(S(=O)(=O)CCCC(=O)Nc2cc(C)on2)n1	-0.1%	?	-6.1%	28.6
COc1ccc(S(=O)(=O)N2CCN(S(=O)(=O)c3ccc4c(c3)OCCO4)CC2)cc1	-2.4%	23.5%	0.1%	1.6
Cn1cccc1P(=O)(c1cccn1C)c1cccn1C	2.3%	15.2%	0.2%	-4.8
[O-]/[N+](=C\c1ccncc1)c1ccccc1	2.9%	-6.6%	-5.4%	7.1
COc1ccc(N2CCN(S(=O)(=O)c3ccc4c(c3)NC(=O)CC(=O)N4)CC2)cc1	-4.3%	6.7%	16.9%	nt
COc1ccc(Cn2c(SC)nc3ccccc32)cc1[N+](=O)[O-]	-2.6%	31.8%	-17.5%	10.4
O=C(NNC(=O)c1cc2cc(Br)ccc2oc1=O)c1ccc(O)cc1O	6.9%	18.3%	-7.8%	15.0
CC(Oc1ccccc1[N+](=O)[O-])C(=O)N/N=C/c1ccoc1 (centres undefined)	-2.9%	?	-6.2%	nt
Cc1cc(C)n(-c2nc(NC(C)(C)C)nc(NC(C)(C)C)n2)n1	3.3%	-7.2%	-4.2%	4.7
Cc1cc(C)cc(-n2nnnc2SCC(=O)N2CCOCC2)c1	0.1%	-19.9%	-0.8%	-2.1
COc1cc(/C=N/NS(=O)(=O)c2ccc(C)cc2)ccc1OCc1cccc(C(=O)O)c1	-1.9%	2.1%	-64.1%	8.3
COc1ccc(C(=O)Nc2ccnn2C2CCN(C(=O)c3cc(C)on3)CC2)cc1	-4.2%	1.8%	-12.3%	nt
COc1ccc(/C=N\NC(=O)COc2ccc(Cl)cc2Cl)c(C(=O)O)c1OC	-3.3%	-10.4%	-0.4%	0.1
CN(C(=O)CSc1nc2ccccc2c(=O)n1-c1ccc(F)cc1)C1CCS(=O)(=O)C1 (centres undefined)	-1.2%	-0.3%	nt	nt
Cc1ccc(-c2cc(C(=O)N/N=C/c3cccnc3)c3ccccc3n2)cc1C	-2.7%	24.0%	nt	nt
COc1cc(C(=O)NCCNc2nc3c(C)c(C)ccc3cc2C#N)cc(OC)c1OC	?	9.9%	-0.3%	nt
Cn1c(=O)c2c(nc(N3CCCCCC3)n2Cc2cccc3ccccc23)n(C)c1=O	0.5%	12.7%	-3.0%	-17.3
O=C(O)CSCC(=O)NCc1c(Cl)cccc1Oc1ccccc1	-4.2%	?	-2.4%	3.0
COc1ccccc1N1CCN(C(=O)c2ccc(S(=O)(=O)N3CCCC3)cc2)CC1	?	-7.5%	-1.2%	4.0

New compounds follow:
SMILES	Rango-impB inh	Rango dissoc inh	miR-21 FLuc	GLA inh pH 4.5
COc1cccc(CCc2nnc(CCC(=O)NC(C)c3c(C)nn(C)c3C)o2)c1 (centres undefined)	0.4%	-8.0%	-4.8%	2.1
C=CCNc1oc(-c2ccc(Cl)cc2)nc1C#N	1.4%	-1.2%	nt	nt
CCn1cc(C(=O)N2CCN(C3CCCCC3)CC2)c2cc(OC)c(OC)cc2c1=O	-6.5%	-3.0%	-10.4%	2.6
CC12c3ccccc3C(c3ccccc31)C1C(=O)N(c3ccncc3)C(=O)C12 (centres undefined)	5.9%	-1.6%	13.3%	3.7
COC(=O)c1[nH]c2cc(OC)ccc2c1NC(=O)CCN1CCSCC1	-1.9%	-11.4%	-5.2%	5.1
Cc1nsc(Nc2ccc([N+](=O)[O-])cc2)c1C#N	-1.2%	23.4%	0.2%	-3.1
Cc1c(C(=O)N2CCN(C(c3ccccc3)c3ccccc3)CC2)oc2ccccc12	1.4%	1.6%	nt	nt
CCn1c(COc2ccccc2)nnc1SCC(=O)CC(=O)Nc1ccccc1OC	-1.9%	-9.4%	-4.8%	-10.7
CN(c1ncc(C(F)(F)F)cc1Cl)N1C(=O)C2ONC3(C(=O)CC(C)(C)CC3=O)C2C1=O (centres undefined)	-1.1%	-6.8%	-1.1%	0.4
O=C(COC(=O)c1cncc(Br)c1)Nc1nnc(-c2ccccc2)o1	-3.2%	-3.5%	nt	nt
Cc1ccc(N(C(=O)c2snc(C(N)=O)c2N)C(C(=O)NCC2CCCO2)c2c[nH]c3ccccc23)cc1 (centres undefined)	-2.5%	-13.2%	21.9%	nt
Cc1ccc(SCC(=O)NC2CCCCCC2)cc1	-0.4%	9.9%	-46.4%	nt
Cn1c(SCCCC(=O)c2ccc(F)cc2)nnc1-c1ccncc1	-1.6%	-6.8%	-0.2%	-17.2
CCO[C@H]1OC(C(=O)N2CCN(Cc3ccc4c(c3)OCO4)CC2)=C[C@@H](C)[C@@H]1CCCO	0.6%	-2.7%	-0.9%	0.0
COc1ccccc1CNC(=O)C1CC(c2cccc([N+](=O)[O-])c2)=NO1 (centres undefined)	0.9%	0.4%	16.2%	1.4
CCOC(=O)c1c(NC(=O)CSc2nnc(CNC(=O)c3ccco3)n2C)sc2c1CCC2	2.4%	0.5%	-1.7%	4.2
Cc1ccc(-c2csc(N3CCC(C(N)=O)(N4CCCCC4)CC3)n2)cc1	4.7%	-1.7%	-5.0%	-10.3
Cc1occc1C(=O)Nc1cccc(C(=O)O)c1	0.7%	8.4%	-41.6%	-1.1
O=C(CSc1nc2nn(-c3ccccc3)c(=O)c-2c2n1CCCCC2)Nc1cccc(F)c1	3.1%	32.3%	nt	nt
COc1cccc(NC(=O)CN(C)C(C)C(=O)N2CCCC2)c1 (centres undefined)	0.2%	0.1%	nt	nt
CN(C)CCNC(=O)/C(=C/c1ccc(-c2ccc(Cl)cc2Cl)o1)NC(=O)c1ccccc1	3.7%	-1.4%	?	-19.4
O=C(Nc1ccccc1F)Nc1cc(S(=O)(=O)N2CCOCC2)ccc1N1CCCC1	-5.0%	7.7%	-1.0%	-4.0
COc1cccc(-c2cc(C(=O)N3CCCc4ccccc43)no2)c1	0.3%	-12.4%	-53.3%	-3.9
CCOC(=O)c1nnn(CC(=O)NC(=O)Nc2ccc(F)cc2)c1C(=O)OCC	-3.0%	0.2%	-0.8%&7.7%	-8.1
Cc1ccc(C)c(N2CCN(C(=O)c3ccc4c(=O)n5c(nc4c3)CCCCC5)CC2)c1	-0.2%	24.4%	14.0%	nt

(next part)
SMILES	Rango-impB inh	Rango dissoc inh	miR-21 FLuc	GLA inh pH 4.5
O=C(NCCc1ccccc1)c1cccc(NC(=O)C2CCCC2)c1	-0.8%	14.8%	nt	nt
Cc1cc(NC(=O)c2ccc(C)c(C)c2)no1	1.4%	0.8%	-35.1%	nt
Cc1ccc(C(C)C)cc1OCC(=O)Nc1ccc(-n2cnnn2)cc1	3.5%	5.0%	nt	nt
Cc1cc(C#N)c(C)n1-c1cc(S(=O)(=O)N2CCOCC2)ccc1N1CCCC1	-0.9%	0.5%	-23.9%	8.8
CCCc1ccc(-c2c(C)sc(N)c2C#N)cc1	-0.9%	-0.4%	-15.4%	-2.7
COC(=O)NCCOc1nc(N(C)C)nc(N(C)C)n1	-1.8%	3.0%	-0.5%	-15.4
O=C(NCCCN1CCOCC1)c1ccc(Sc2cccc(Cl)c2)c([N+](=O)[O-])c1	-3.2%	0.1%	-11.9%	-3.9
CCc1cc(C(=O)c2ccc(Br)cc2)c(NC(=O)CN(CC)CC)s1	1.8%	0.4%	-2.1%	nt
Cc1cc(/C=N/NC(=O)c2cccs2)c(C)n1-c1ccccc1	5.5%	-4.1%	1.7%	-0.3
CC1(C)Oc2ccc3ccc(=O)oc3c2/C(=C/O)C1=O	?	-7.0%	-4.8%	nt

Grouped by structure, those above with two or more sulfur atoms
SMILES	Rango-impB inh	Rango dissoc inh	miR-21 FLuc	GLA inh pH 4.5
O=S(=O)(NC(=S)NC1CCCCC1)c1ccc(Cl)cc1	3.6%	-2.9%	-0.8%	5.9
CC(C)CN(CCCNC(=O)CN1C(=O)CSc2ccc(S(=O)(=O)N3CCOCC3)cc21)CC(C)C	0.5%	16.2%	-2.5%&-0.6%	-13.1
COc1ccc(S(=O)(=O)N2CCN(S(=O)(=O)c3ccc4c(c3)OCCO4)CC2)cc1	-2.4%	23.5%	0.1%	1.6
CN(C(=O)CSc1nc2ccccc2c(=O)n1-c1ccc(F)cc1)C1CCS(=O)(=O)C1 (centres undefined)	-1.2%	-0.3%	nt	nt
CCOC(=O)c1c(NC(=O)CSc2nnc(CNC(=O)c3ccco3)n2C)sc2c1CCC2	2.4%	0.5%	-1.7%	4.2
